NPYLR7 ag: activates Aedes aegypti NPYLR7 receptor; HEK293T NPYLR7/Galpha15, GCaMP6s calcium fluorescence; activation, % at 10 µM; 0.15% of 270,000 active; AID 1259423; in the data active = activation above about 40%;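 also: 0% = vehicle and 100% = reference agonist at the receptor; some compounds past the cut are filed as inactive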
NPYLR7 ag max-min: recorded beside NPYLR7 ag, whose call it bears; activation, %; measured here: Max-Min RFU normalised activation; some inactives read as strong as hits;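 span of the calcium signal over five minutes; 0% = vehicle and 100% = native peptide agonist; compound fluorescence can raise it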
The depositor's hits bear a star. This is a subset, so the mix of outcomes need not match the whole.

Structure	NPYLR7 ag	NPYLR7 ag max-min
CC(C)Oc1ccc(C(C(=O)O)N2CCCC2)cc1 (stereo not drawn)	-3	-11
CCn1cc(CNC(=O)c2ccc(OC)c(OC3CCN(C(C)C)CC3)c2)cn1	6	5
O=C1NC(O)C(Cl)=C1Cl (stereo not drawn)	-7	-10
CC1CCN(C(=O)Cn2cc(SCC(=O)N3CCc4ccccc43)c3ccccc32)CC1	-3	-4
CCCCNC(=O)c1csc(CN(CCCC)C(=O)Nc2ccccc2OCC)n1	2	9
CN1CC2(CCN(C(=O)CCn3cnc4ccccc4c3=O)C2)OC1=O (stereo not drawn)	0	-1
O=C(c1cccn2c(=O)c3c4c(sc3nc12)CCCC4)N1CCOCC1	-3	-1
COCCNC(=O)c1ccc(-n2nc(C)cc2C)cc1	-8	-11
c1cnc(Sc2ccc3ccccc3c2)nc1	10	15
CO[C@@H]1CN(c2ccccc2)S(=O)(=O)[C@@]12CCN(S(C)(=O)=O)C2	5	7
COc1cc2c(cc1OC)CN(C(=O)c1cn(CC3CCCO3)nn1)CC2 (stereo not drawn)	3	-3
Cn1cnnc1SCC(=O)Nc1nonc1-n1cccc1	0	-3
CCCn1cc(CN2CCN3CCN(C)CC3C2)c(C)n1 (stereo not drawn)	-5	-4
CCN(CC(C)C(=O)OC)c1ccnc(-c2ccccc2)n1 (stereo not drawn)	-1	-2
O=[N+]([O-])c1ccccc1Oc1ccc(Br)cc1Br	3	10
O=S1(=O)OC(c2ccc(O)cc2)(c2ccc(O)cc2)c2ccccc21	0	-1
Cc1cc(C)c(-c2c(O)c3c(n(C)c2=O)CC(C)(C)CC3=O)c(C)c1	5	8
Cc1ccc(C)c(NC(=O)c2cccn(OCc3cccc(Cl)c3)c2=O)c1	14	12
Cn1c(=O)[nH]c(=O)c2c1nc(Br)n2CCSc1nc2ccccc2o1	14	10
COc1ccc(-c2cccc(-n3cncc3C(=O)NCCCSC)c2)cc1OC	4	2
COc1ccc(-c2ccc(C(=O)NC(C)c3ccc(Br)cc3)s2)c(OC)c1OC (stereo not drawn)	4	5
CCOC(C)c1ccc(-c2nccc(OC)n2)cc1 (stereo not drawn)	-1	1
CC1(C(=O)NS(=O)(=O)c2cccc(OC(F)F)c2)CCN1C(=O)C1(c2ccccc2)CCCC1 (stereo not drawn)	6	6
O=C(CCc1nc(-c2ccccn2)no1)NC1CCSc2ccccc21 (stereo not drawn)	-8	-9
CC(C)(C)N=S1OC(c2ccccc2)c2ccccc21 (stereo not drawn)	4	8
Cc1csc(SCc2cc(=O)c(OC(=O)Cc3ccc(F)cc3)co2)n1	-2	-7
Clc1ccccc1N1CCN(c2nc(-c3ccccc3)c3cc(Br)ccc3n2)CC1	-6	-10
O=S1(=O)c2ccccc2NC(c2ccccc2Br)N1Cc1ccccc1 (stereo not drawn)	-1	-2
Cc1ccc(S(=O)(=O)N2CCOCC2)cc1NC(=O)CCC1CCCCC1	10	11
CC(=O)Nc1ccc(CN2C(=O)CON=C2c2ccc(F)cc2)cc1	7	3

A draw from above in order of molar mass, smallest number first.
Structure	NPYLR7 ag	NPYLR7 ag max-min
COCCNC(=O)c1ccc(-n2nc(C)cc2C)cc1	-8	-11
O=[N+]([O-])c1ccccc1Oc1ccc(Br)cc1Br	3	10
Cc1ccc(S(=O)(=O)N2CCOCC2)cc1NC(=O)CCC1CCCCC1	10	11
O=S1(=O)c2ccccc2NC(c2ccccc2Br)N1Cc1ccccc1 (stereo not drawn)	-1	-2
CC1(C(=O)NS(=O)(=O)c2cccc(OC(F)F)c2)CCN1C(=O)C1(c2ccccc2)CCCC1 (stereo not drawn)	6	6

Following part.
Structure	NPYLR7 ag	NPYLR7 ag max-min
O=C(N1CCC(n2cccc2)CC1)C1(c2cccc(C(F)(F)F)c2)CCCC1	-6	-3
Oc1ccc(C23CC4CC(CC(C4)C2)C3)cc1Br	3	3
COc1ccc(CC(=O)N=Nc2c(O)n(CN(C)C)c3ccccc23)cc1	-1	-7
O=C(CNc1ccc(F)cc1)N1CCN(S(=O)(=O)c2ccc3ccccc3c2)CC1	2	3
Cc1ccc(S(=O)(=O)NC(=O)C2(C)CCN2C(=O)CCc2ccc(Cl)cc2Cl)cc1 (stereo not drawn)	7	5
CCN(C)c1cc(Oc2ccc(F)cc2Cl)ncn1	-1	1
Fc1ccc(C2CCCN2Cc2nc(Cc3ccccc3F)no2)cc1 (stereo not drawn)	-2	-4
CC(C)(C)c1cnc(CN2CCC(NC(=O)CC3CCCC3)CC2)o1	-2	-7
Cc1ccc(NC(=O)CC2CSc3nc4c(cnn4-c4ccccc4)c(=O)n32)cc1F (stereo not drawn)	1	-2
COc1cccc(OC)c1-c1cccc([C@@H](C)N)c1	9	8
O=C(Nn1c(SCc2cccc([N+](=O)[O-])c2)nc2ccccc2c1=O)c1ccccc1	-6	-9
CC1(C(=O)Nc2ccc(Cl)c(Cl)c2)CCN1C(=O)Cc1cc(F)ccc1F (stereo not drawn)	-1	-1
Cc1cc(C(=O)O)n[nH]1	-4	0
CC(OC(=O)c1cscn1)c1ccc2c(c1)NC(=O)CO2 (stereo not drawn)	-11	-10
CC(OCC(F)(F)F)C(=O)Nc1ccc2ccccc2n1 (stereo not drawn)	-22	-24
Cc1ccc(-c2nc(C=Nc3cccc(C(F)(F)F)c3)c(O)o2)cc1	-3	-9
CCc1ccc(C(=O)NN(C(=O)c2ccc(CC)cc2)C(C)(C)C)cc1	-7	-8
O=C(Nc1ccc(-c2ccccc2)cc1Cl)C1CC1	7	2
Cc1ccc(CNC(=O)C2CC(c3ccccc3)=NO2)cc1 (stereo not drawn)	1	0
Cc1cc(SCC(=O)NCc2ccccn2)nc2ccccc12	0	18
O=C(CCCn1nc(-c2cccs2)ccc1=O)N1CCc2ccccc21	1	7
COc1cc(OC)c(OC)cc1C=Nn1cc(-c2ccccc2)[nH]c1=S	5	14
COC(=O)c1sc(N2C(=O)C(=O)C(=C(O)c3ccc(OC)cc3)C2c2ccccc2F)nc1C (stereo not drawn)	3	1
COc1ccc(-n2ncc(Oc3cccc(C)c3C)c(Nc3cccc(C(=O)NCc4ccco4)c3)c2=O)cc1	13	14
O=C(CN1CCCc2cc(F)c(F)cc21)Nc1ccccc1F	9	7
C#CCOCC(O)CN(Cc1c(-c2ccccc2)noc1N(CC)CC)CC1CCCO1 (stereo not drawn)	0	1
COc1ccc2c(c1)CCc1cc(CCC(=O)NCCN3CCCC3)n(-c3ccc4ncsc4c3)c1-2	31	16
CSc1ncc(CNCc2ccco2)c(N2CCc3ccccc3C2)n1	18	17
O=c1nccc(C(F)(F)F)[nH]1	0	-1
COc1ccc(NC(=O)NCCNc2ccc(Nc3ccccn3)nn2)cc1OC	8	0
Cc1cc(C)n(CC(=O)N2CCC(Cc3cccc(C(=O)O)c3)CC2)c(=O)n1	-1	-4
O=C(Nc1ncc(S(=O)(=O)c2ccc([N+](=O)[O-])cc2)s1)C(F)(F)C(F)(F)C(F)(F)F	-2	-6
O=C1NC(Cc2ccccc2)C(=O)N1CCOc1c(Cl)cccc1Cl (stereo not drawn)	-2	-3
COc1ccccc1C(=O)NC1CCN(c2ccccc2C(=O)N2CCc3ccccc3C2)CC1	1	6
COC(=O)CCCC(=O)N1CCCN(Cc2cc(=O)c(OCc3cccc(OC)c3)co2)CC1	39	42
CCOC(=O)c1ccc2c(c1)nc(SCc1ccc(C(F)(F)F)cc1)n2Cc1cccc(F)c1	-6	-7
CCCCc1cnc2c(c1SCC(=O)Nc1ccccc1C)c(=O)n(C)c(=O)n2C	1	5
Cn1cc(C(=O)N2CCOCC2)cc(NC(=O)c2c(F)cccc2Cl)c1=O	-16	-21
Cc1cc(C(F)(F)F)n2nc(C)cc2n1	1	4
Nc1cc(-c2ccc(Cl)c(Cl)c2)nn1-c1ccc(C(=O)Nc2cccc(Cl)c2)cc1	-8	-11
N#CC(C(=O)N1CCCC1)=C1N=C(N)c2ccccc21	-2	-4
CCOCCOc1nc(-c2ccccc2C)n(-c2ccc(NC(=O)c3ccc(Cl)c(Cl)c3)cc2)n1	20	18
COC(=O)c1ccc2c(=O)[nH]c(COC(=O)c3ccccc3C)nc2c1	3	-4
Cc1nonc1CN(C)C(=O)c1cc(C(C)C)nn1C	0	-2
CCCCc1ccc(-c2nc(C=Nc3cccnc3)c(O)o2)cc1	3	2
O=c1cc(CO)oc(CN2CCN(CCO)CC2)c1O	12	11
O=C(Nc1ccc(Br)cc1)c1cccn(OCc2ccccc2F)c1=O	3	0
Clc1ccccc1Nc1cc2c(cn1)ncn2-c1ccccc1	8	0
C=C1CCC(OC(C)=O)C2(C)CC3(O)OC(=O)C(C)=C3CC12 (stereo not drawn)	-8	-17
O=C(Nc1cn[nH]c1-c1nc2ccc(CN3CCOCC3)cc2[nH]1)NC1CC1	-2	-5
C=CC[C@@H]1CC=C[C@@H](C)N1CC(=O)Nc1ccc(N(C)C(C)=O)cc1	2	-2
CCc1ccc(C2NC(=O)N(C)C(C)=C2C(=O)OC)cc1 (stereo not drawn)	3	-1
CCN(CC)CCCNC(=O)c1sc2nc(-c3ccccc3)cn2c1C	5	1
COc1ccnc(N2CCC(c3n[nH]c(=O)n3Cc3ccccc3)CC2)n1	7	3
Cc1cc(COc2ccccc2)oc1C(=O)N1CCC2(CCCO2)CC1	11	9
CCc1nc2c(OCc3ccc(Cl)cc3)cccn2c1N(C)C(=O)c1ccco1	7	-5
COC(=O)c1c(O)nc2sccn2c1=O	-3	-4
Cc1nc(SCC(=O)NC(=O)NC(C)C)c2c(C)c(C)sc2n1	6	9
C=C(C)COc1ccccc1C(=O)NCCc1c(C)n[nH]c1C	6	2
O=C(NCc1ccncc1)c1cc(-c2cccs2)nn1-c1cccc([N+](=O)[O-])c1	10	10

A section from further up:
Structure	NPYLR7 ag	NPYLR7 ag max-min
Cc1cc(C)n(CC(=O)N2CCC(Cc3cccc(C(=O)O)c3)CC2)c(=O)n1	-1	-4
O=C(Nc1ncc(S(=O)(=O)c2ccc([N+](=O)[O-])cc2)s1)C(F)(F)C(F)(F)C(F)(F)F	-2	-6

Following part.
Structure	NPYLR7 ag	NPYLR7 ag max-min
O=C1NCCN2CCN(C(=O)Cn3cccc3)CC12 (stereo not drawn)	2	0
O=C(Cn1cccn1)N1CCCC(Nc2ccc3c(c2)OCCO3)C1 (stereo not drawn)	0	-2
CCOc1ccc(CN(C)c2c(C#N)c(=O)n(C)c(=O)n2C)cc1OC	0	-1
CNCCN1C(=O)C(C)SC1c1ccc(C(F)(F)F)cc1 (stereo not drawn)	-1	-5
COc1ccc(C(=O)OC2CC3CC[C@H](C2)N3C(C)=O)cc1OC (stereo partly drawn)	1	0
Cc1nn(C)c(C)c1C(C)NC(=O)N1CCCC1CC1CCCCC1 (stereo not drawn)	-2	-3
O=C(O)CCCC[C@@H]1SC[C@@H]2NC(=O)N[C@@H]21	9	5
CCN(CC)C(=O)CSc1ncnc2sc3c(c12)CCC3	-4	-7
CC1(C(=O)NS(=O)(=O)Cc2ccccc2C(F)(F)F)CCN1C(=O)CC1CC1 (stereo not drawn)	0	-1
COc1ccc(CNC(=O)c2ccc(-n3nc(-c4cccc(C(F)(F)F)c4)cc3N)cc2)cc1	-9	-12
Cc1nnc(SCCCNC(=O)c2ccc3nc[nH]c3c2)s1	0	-3
CCN(CC)C(=O)CCCNS(=O)(=O)c1ccccc1C#N	2	-1
CSc1ncc(C(=O)NCC(=O)Nc2c(C)cc(C)cc2C)n1-c1ccccc1	14	13
CC(C)OC(=NCCN1CCCCC1)NC(=O)c1cccc(C(F)(F)F)c1	0	0
CCc1[nH]nc(NC(=O)COCC(F)(F)F)c1Br	6	4
CCOc1cc(-c2nccn2CCN2CCNC2=O)ccc1O	-3	-7
Cc1cccc(-n2nnc3c(=O)[nH]cnc32)c1	-7	-5
CCC(CC)C(=O)N(C)c1c(C)nc2c(OCC(=O)c3ccc(F)cc3)cccn12	-5	-16
CN(C)C1(CN)CCCCCC1	-10	-15
CCOc1ccc(-n2c(C(CC)N(CCCOC)C(=O)c3cccc(F)c3)nc3ccccc3c2=O)cc1 (stereo not drawn)	5	2
Cc1ccc2c(C)c(C(=O)N3CCC(c4ccccc4C(=O)O)C3)oc2c1 (stereo not drawn)	-6	-17
CN(C)c1ccc(C(F)(F)F)cc1NCc1ccoc1	-2	-2
COc1ccc(CNC(=O)c2cn(Cc3ccc(C)cc3)c(=O)s2)cc1	8	2
O=C(C1CCOC1)N1CCN(C2Cc3ccccc3C2)CC1 (stereo not drawn)	-5	-4
CCOc1cc2c(cc1NC(=O)C1CC3CCCC(C1)C31SCCS1)OC(C)C2 (stereo not drawn)	6	3
Cc1ccc(C(C)C)cc1OCCCn1cnc2ccccc21	-5	6
Cc1nc(C(C)C)sc1C(=O)N1CCCN(C)C2(CCN(C)CC2)C1	-4	-2
COC(=O)c1sc(NC(=O)c2ccccc2)c(C(=O)OC)c1C	-5	-9
Cn1cnc2c(NCCc3ccccc3)nccc21	-4	-11
COc1cccc(-c2csc(-n3nc(C)cc3NC(=O)C3CC(=O)N(c4ccccc4C)C3)n2)c1 (stereo not drawn)	-7	-8
CSc1ccccc1NC(=O)C1(C)CCN1C(=O)C1CCCCC1 (stereo not drawn)	3	4
O=C(OCc1nc(C(=O)NCCc2cccnc2)cs1)c1ccccc1	6	6

Single records (already shown):
`CCn1cc(CNC(=O)c2ccc(OC)c(OC3CCN(C(C)C)CC3)c2)cn1` is entered as NPYLR7 ag: 6; NPYLR7 ag max-min: 5
`Fc1ccc(C2CCCN2Cc2nc(Cc3ccccc3F)no2)cc1` (stereo not drawn) is entered as NPYLR7 ag: -2; NPYLR7 ag max-min: -4
